Source: PubChem BioAssay (ICCB-Longwood Screening Facility, Harvard Medical School)
GIV Gai3 FP – GIV-Galpha-i interaction inhibition. Galpha-i3/FITC-GIV peptide fluorescence polarization, 90 min; stronger effect = lower value; scaled: aluminum fluoride 0%, vehicle 100%. percent of control (FP), % (concentration not given with the values). 210,000 compounds, 0.42% hits. AID 1224905;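 active = replicate mean at 85% of control or lower, very high polarization wells dropped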;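 also: wells of about 15 µL received 100 nL stock; the first replicate is given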
Target sequence (P08753 whole entry, looked up): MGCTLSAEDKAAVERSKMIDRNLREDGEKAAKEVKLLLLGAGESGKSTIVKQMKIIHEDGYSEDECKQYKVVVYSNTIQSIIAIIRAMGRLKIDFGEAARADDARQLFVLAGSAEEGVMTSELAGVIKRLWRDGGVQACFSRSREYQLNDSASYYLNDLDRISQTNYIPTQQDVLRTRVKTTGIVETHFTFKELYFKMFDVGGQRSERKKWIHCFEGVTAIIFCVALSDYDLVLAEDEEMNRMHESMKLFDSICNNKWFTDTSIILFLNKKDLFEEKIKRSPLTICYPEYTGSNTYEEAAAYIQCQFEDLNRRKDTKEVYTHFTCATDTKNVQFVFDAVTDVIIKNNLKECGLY
Active calls of the source: *.

A first look:
SMILES	GIV Gai3 FP
O=C(CCCn1c(SCc2cc(=O)n3ccccc3n2)nc2ccccc2c1=O)NCc1cccc(Cl)c1	113
c1ccc(CCn2c(-c3ccc(C4CCCCC4)cc3)csc2=Nc2ccccc2)cc1	105

This part in full, previewed entries included:
SMILES	GIV Gai3 FP
O=C(CCCn1c(SCc2cc(=O)n3ccccc3n2)nc2ccccc2c1=O)NCc1cccc(Cl)c1	113
c1ccc(CCn2c(-c3ccc(C4CCCCC4)cc3)csc2=Nc2ccccc2)cc1	105
CCOc1c(Br)cc(C2C(C(=O)N3CCOCC3)=C(C)NC3=C2C(=O)CC(C)(C)C3)cc1OC (centres undefined)	97
CCc1ccc(S(=O)(=O)Nc2ccc3c(c2)c2c(n3S(=O)(=O)c3ccc(CC)cc3)CCCC2=O)cc1	105
N#Cc1c(/N=C/c2ccc(Cl)cc2)oc(-c2ccccc2)c1-c1ccccc1	109
CC1(C)CN(CC(=O)N2CCCC2)c2ccc(S(=O)(=O)NCc3cccs3)cc21	108
O=C(NC1CCCC1)c1csc(C(=O)NC2CCCC2)n1	101
COc1ccc(C2=N/C(=C\c3ccc(OC)cc3OC)C(=O)O2)c(Br)c1	99
COc1cc(/C=C2/NC(=S)NC2=O)ccc1OCc1ccc(C(=O)O)cc1	100
O=C(Nc1ccc(Br)cc1F)c1cc(S(=O)(=O)NCc2ccccc2Cl)ccc1F	111
Cc1ccccc1C(=O)N(CCN1CCN(c2ccccc2)CC1)CCS(=O)(=O)N1CCNCC1	103
Cc1ccc(Nc2nc(-c3ccc(F)cc3F)cs2)nc1	99
COc1ccc(C(=O)Nc2cc(-c3nc4cc(C)ccc4o3)ccc2Cl)cc1Br	103
CCC1CCCCN1C(=O)Cn1c(=O)c2c(C)cc(C)nc2n(-c2ccccc2)c1=O (centres undefined)	105
O=C(Nc1cc(F)cc(F)c1)c1ccc(-c2cc(N3CCCC3)ncn2)cc1	193
CC12CN3CC(C)(CN(C1)C3c1cn(Cc3ccccc3)c3ccccc13)C2=O (centres undefined)	113
CCOC(=O)CCC(=O)Nc1nnc2n1CCCS2	100
CC(C)NC(=O)N1CCNC(=O)C1(C)C	97
CCOC(=O)C1=C(C)NC2=C(C(=O)c3ccccc32)C1c1ccccc1OC (centres undefined)	118
CCN1CCN(C(=O)CCc2c(C)nn(-c3ccc4nnc(C)n4n3)c2C)CC1	98
Fc1cccc(CNC2=NCCNC23CCCCCC3)c1	112
C=CCOC(=O)C1=C(C)NC(=O)NC1c1cn(-c2ccccc2)nc1-c1ccc(OCC)cc1 (centres undefined)	111
O=C(NCCCN1CCOCC1)C1CCN(c2cncnc2N2CCCCC2)CC1	113
CC(C)CCNC(=O)c1cccc(-c2cc(NC3CCCCC3)ncn2)c1	105
O=C(C1CCN(c2nc3ccccc3[nH]2)CC1)N1CCN(c2ncccn2)CC1	100
O=c1c(C=Nc2cccc(F)c2)c(C(F)(F)F)[nH]n1-c1nc2ccccc2s1	104
CC(=O)c1c(C)oc2ccc(N(C(=O)c3ccc(Cl)cc3)S(=O)(=O)c3ccc(C)cc3)cc12	114
COc1cc(Nc2nc(SCc3cc(=O)n4cc(Cl)ccc4n3)nc3ccccc23)cc(OC)c1	110
COc1ccc(OC)c(N(CC(=O)NCCc2ccc(OC)c(OC)c2)S(=O)(=O)c2ccc(OC)c(OC)c2)c1	110
C=CCn1c(C(=O)N2CCN(c3ccccn3)CC2)cc2cc(S(=O)(=O)N(C)C)ccc21	100
COc1cccc(Cn2nnc3cc(C(=O)NCc4ccc(Cl)cc4)ccc32)c1	106
CCOc1ccc(C2C(N3C(=O)c4c(Cl)c(Cl)c(Cl)c(Cl)c4C3=O)C(=O)N2c2ccc(F)cc2)cc1 (centres undefined)	111
CC(C)CCNC(=O)CSc1nc(NCc2ccccc2)c2ccccc2n1	97
Cc1cc2c(cc1C)-c1c(ssc1=Nc1ccc(Cl)cc1)C(C)(C)N2	105
Nc1nonc1-n1nnc(C(=O)N/N=C/C=C/c2ccccc2)c1CN1CCCCCC1	104
O=C1CC(c2ccc(Cl)c(Cl)c2)c2ccc3ccccc3c2N1 (centres undefined)	110
CNC(=O)C(=O)NCC1(c2ccc(OC)c(OC)c2)CCCC1	116
C=CCNC(=O)c1cc2c(n(-c3ccc(F)cc3)c1=O)CCCC2=O	101
Cc1ccc(C2OC3(C(=O)c4ccccc4C3=O)C3C(=O)N(c4cccc(C(F)(F)F)c4)C(=O)C23)cc1 (centres undefined)	106
CCCS(=O)(=O)c1c(S(=O)(=O)CCC)c2ccccn2c1C(=O)N/N=C/c1ccc(OC)c(OC)c1	105

In another format: results already given
GIV Gai3 FP | smiles
106 | COc1cccc(Cn2nnc3cc(C(=O)NCc4ccc(Cl)cc4)ccc32)c1
111 | CCOc1ccc(C2C(N3C(=O)c4c(Cl)c(Cl)c(Cl)c(Cl)c4C3=O)C(=O)N2c2ccc(F)cc2)cc1 (centres undefined)
97 | CC(C)CCNC(=O)CSc1nc(NCc2ccccc2)c2ccccc2n1
105 | Cc1cc2c(cc1C)-c1c(ssc1=Nc1ccc(Cl)cc1)C(C)(C)N2
104 | Nc1nonc1-n1nnc(C(=O)N/N=C/C=C/c2ccccc2)c1CN1CCCCCC1

Further results follow.
SMILES	GIV Gai3 FP
Cc1ccc(S(=O)(=O)Nc2nc(CC(=O)Nc3ccccc3)cs2)cc1	107
CCOC(=O)C1=C(N)n2c(s/c(=C/c3ccc(C(C)C)cc3)c2=O)=C(C(=O)OCC)C1c1ccc(C(C)C)cc1 (centres undefined)	107
COc1ccc(-c2cn3c4c(=O)n(C)c(=O)n(C)c4nc3n2-c2cccc(C)c2)cc1	124
O=C(CCC(=O)NC1CCN(Cc2ccccc2)CC1)Nc1nc(-c2cc3ccccc3oc2=O)cs1	123
O=C(Nc1cnc(N2CCN(c3ccccc3Cl)CC2)c(C(=O)O)c1)c1ccc(F)cc1	116
O=C1C(=O)N(c2nc3ccccc3s2)C(c2cccc([N+](=O)[O-])c2)/C1=C(\O)c1ccccc1 (centres undefined)	101
CC1(C)C(=O)NCCN1C(=O)C1CC1	106
Cc1c(C(=O)NC2CCCCC2)sc2nc(SCC(=O)C(C)(C)C)n(CCc3ccccc3)c(=O)c12	115
O=C1Nc2ccccc2Oc2cc(N3CCCC3)c(S(=O)(=O)N3CCCC3)cc21	106
CCOC(=O)CC(=O)CSc1nc2cc(C(=O)NCc3ccco3)ccc2c(=O)n1-c1ccc(OC)c(OC)c1	105
O=C1CCCN1c1ccc(Cn2cccc(S(=O)(=O)N3CCCC3)c2=O)cc1	108
COc1ccc(NC(=O)CCc2nc(-c3ccc(N4CCCC4)cc3)no2)cc1OC	103
Cn1c(SCCOc2ccccc2)nnc1-c1ccc2c(c1)OCCCO2	105
COc1ccc(C2=Nc3ccccc3N=C(c3ccccc3)C2)c(O)c1	119
CCCCN(C)c1ccc2nnc(CCc3nc(-c4ccc5c(c4)OCO5)no3)n2n1	104
O=C(Nc1nnc(SCc2nnc(-c3ccccc3)o2)s1)C1CC1	102
Cc1ccc(Nc2nc(NCCO)nc3c2cnn3-c2ccccc2)cc1	99
O=C(CN(c1cc(C(F)(F)F)ccc1Cl)S(=O)(=O)c1ccccc1)Nc1ccc2c(c1)OCO2	105
Cc1c(CC(Cl)(Cl)Cl)c2c(n1-c1ccc(F)cc1F)CC(C)(C)CC2=O	101
Cc1ccc(-c2nc3ccccc3c3nnc(SCc4cccnc4)n23)cc1	104
Cc1cc(C(=O)N2CCCC2c2cc(C)on2)on1 (centres undefined)	109
COc1ccccc1N1CCN(C(=O)CSc2nc3ccccc3c(=O)n2CCC(=O)NCc2ccc(F)cc2)CC1	109
O=C(NCC1CCCO1)c1ccc(NC(=O)c2nsc3ccccc23)cc1 (centres undefined)	108
CCOC(=O)c1cnc2c(OC)cccc2c1Nc1ccc(Br)cc1C	124
COc1ccc(N2CC(NC(=O)Nc3nc4ccccc4s3)CC2=O)cc1 (centres undefined)	102
CCOC(=O)c1sc2nc(SCc3cc(C(C)=O)ccc3OC)n(Cc3ccco3)c(=O)c2c1C	109
CCN1CCCn2nc(C3CCN(S(=O)(=O)c4cnn(CC)c4)CC3)cc2C1=O	101
COc1ccccc1N1CCN(S(=O)(=O)c2ccc(F)c(C(=O)Nc3cc(C)cc(C)c3)c2)CC1	115
CC(C)c1ccc(NC(=O)Cn2nc(C(=O)Nc3ccccc3)ccc2=O)cc1	101
CCn1cccc1-c1nc(C)c(C(=O)NCCc2ccc(Cl)cc2)s1	104
CCOCCn1cnc2sc(C(=O)N3CC(C)CC(C)C3)c(C)c2c1=O (centres undefined)	109
COC(=O)C1(C(=O)/C=C/c2ccc(Br)cc2)CCCCC1	111
Cc1ccc(CNS(=O)(=O)c2cc(-c3nc(C)c(C)s3)cs2)cc1	97
CCC(=O)OC1CCC2(C)C(=CCC3C2CCC2(C)C(C(C)CCCC(C)C)CCC32)C1 (centres undefined)	110
Cc1ccc(-c2[nH]nc3c2C(C(=O)c2ccc4c(c2)OCO4)CC(=O)N3)cc1 (centres undefined)	104
CC(=O)Oc1ccc(N2C(=O)C3C4c5ccccc5C(C=O)(c5ccccc54)C3C2=O)cc1 (centres undefined)	116
CC1CCN(C(=O)CN2C(=O)C3CCCN3C(=O)c3cc(F)ccc32)CC1 (centres undefined)	103
Cc1ccc(N2C(=O)C(=O)/C(=C(/O)c3ccccc3)C2c2ccc3c(c2)OCO3)cc1Cl (centres undefined)	109
CC(=O)Nc1ccc(-c2noc(C3CCCN(C(=O)c4ccc(C(C)C)cc4)C3)n2)cc1 (centres undefined)	99
CCOc1ccccc1NC(=O)c1ccc(F)c(S(=O)(=O)N2CCN(c3cccc(C)c3)C(C)C2)c1 (centres undefined)	107
Cc1c(C(=O)N2CCOCC2)sc2nc(SCC#N)n(CCc3ccccc3)c(=O)c12	115
CCCCN1C(=O)/C(=C2\SC(=S)N(NC(=O)c3ccc(C)cc3)C2=O)c2ccccc21	103
Cn1cnnc1C1CCCN(Cc2ccccc2C(F)(F)F)C1 (centres undefined)	117
COc1cc(C2Nc3ccc4ccccc4c3C3=C2C(=O)CC(C)(C)C3)cc(OC)c1O (centres undefined)	117
CCOC(=O)C1CCN(c2ncnc3c2c(-c2ccccc2)cn3-c2ccccc2)CC1	108
CCn1c(SCc2ccc(Cl)cc2)nc(=O)c2c(C(=O)OC)cc(C)nc21	104
CC1=C(C(=O)Nc2ccccc2)C(c2ccncc2)C(C#N)=C(SCC(=O)Nc2ccccc2)N1 (centres undefined)	112
CC12c3ccccc3C(c3ccccc31)C1C(=O)N(c3ccc(Cl)cc3)C(=O)C12 (centres undefined)	115
Cc1nc2ccccc2c(=O)n1-c1ccc(NC(=O)C(C)Oc2ccccc2)cc1 (centres undefined)	105
NC(=O)C1(N2CCCCC2)CCN(c2nc(-c3ccccc3F)nc3ccccc23)CC1	107
O=C(Cn1nc(C(=O)Nc2ccccc2)ccc1=O)Nc1ccc(Cl)cc1	103
c1nc(N2CCCC2)c2sc3nc(N4CCOCC4)c4c(c3c2n1)CCCC4	115
CS(=O)(=O)N1CCN(c2ncnc3c2nnn3-c2ccc(F)cc2)CC1	101
CCOC(=O)c1nc(Nc2ccc(OC)cc2OC)c2c(C)c(C)n(-c3cccc(Cl)c3)c2n1	103
Cc1ccc(N2C(=O)C3CCC(C)(C2=O)C3(C)C)cc1C (centres undefined)	105
Clc1ccccc1/C=N/OCc1nc2c3c(-c4ccccc4)c(-c4ccccc4)oc3ncn2n1	112
O=C(CSc1nnc(-c2cccnc2)n1Cc1ccccc1)c1ccc(Br)cc1	101
O=c1c2cn[nH]c2nc(SCc2nc(-c3ccc(Cl)cc3)no2)n1-c1ccccc1	103
CCOc1ccc(N/C(SCc2ccc(Cl)cc2)=C(/C#N)C(N)=O)cc1	103
Cc1nn(-c2ccc(F)cc2)c2c1c(=O)c(C(=O)NCCN1CCCC1)cn2C	111

Next part:
SMILES	GIV Gai3 FP
CCOc1ccc(N2C(=O)/C(=C\c3ccccc3OC)N=C2c2ccc(OC)c(OC)c2)cc1	113
O=C1Nc2cc(S(=O)(=O)NC3CCCCC3)ccc2SCC1CC(=O)N1CCCC1 (centres undefined)	98
COc1ccc(/C=C2\C=C(c3ccccc3)N(c3ccc(Cl)c(Cl)c3)C2=O)cc1Br	119
Cn1cnc2ccc(-c3noc(C4CCCO4)n3)cc21 (centres undefined)	107
COc1cccc(-n2c(=S)sc3c2nc(=S)n2c4ccccc4[nH]c32)c1	104
Cc1ccc(-c2noc(-c3nnn(Cc4nc(-c5ccc(C)cc5)oc4C)c3C)n2)cc1	106
O=C(NCc1ccccc1)c1cc(-c2ccccn2)nc2ccc(S(=O)(=O)N3CCOCC3)cc12	102
COc1cc(OC)c(/C=C2\C(=O)NC(=O)N(c3cccc(C)c3)C2=O)cc1Br	104
CN1C(=O)N(C)C2NNC(N)=NC21 (centres undefined)	103
COc1ccc(CCNC(=O)c2nnc(-c3ccc(S(=O)(=O)N4CCCC4)cc3)o2)cc1OC	103
Cc1nc(N2CCC(C)CC2)c2c(C)c(C(=O)N3CCC4(CC3)OCCO4)sc2n1	116
OC1(c2ccccc2)CN(c2ccc(Cl)cc2)C2=[N+]1CCCS2 (centres undefined)	106
O=C1c2ccccc2C(=O)c2c1c(-c1ccccc1)n(-c1ccc(Br)cc1)c2-c1ccc(Cl)cc1	111
CCCn1c(=O)/c(=C2/C=Cc3ccccc3N2CC)s/c1=C1/SC(=S)N(c2ccc(C)cc2)C1=O	116
COc1cc(-n2c(C)nc3cc(C(=O)NC4CCCC(C)C4C)ccc32)cc(OC)c1OC (centres undefined)	110
CCCc1cc(C2CCCN2Cc2cn[nH]c2-c2cc(OC)ccc2OC)no1 (centres undefined)	108
CN(C)S(=O)(=O)c1ccc(-c2noc(C(=O)NCCN3CCCC3)n2)cc1	102

Look-ups from the list:
Result for `Cc1cc2c(cc1C)-c1c(ssc1=Nc1ccc(Cl)cc1)C(C)(C)N2` under GIV Gai3 FP: 105
Result for `O=C(NCc1ccccc1)c1cc(-c2ccccn2)nc2ccc(S(=O)(=O)N3CCOCC3)cc12` under GIV Gai3 FP: 102
Result for `Cc1nc2ccccc2c(=O)n1-c1ccc(NC(=O)C(C)Oc2ccccc2)cc1` (centres undefined) under GIV Gai3 FP: 105

An excerpt. The share of hits here may be higher or lower than overall.
